DUX4 txn inh: DUX4-mediated transcription inhibition. 293T-iDUX4 ZSCAN4-Gaussia luciferase reporter, 24 h; stronger effect = lower value. activity change, negative = inhibition, % (concentration not given with the values). 0.8% of 37,000 active. AID 1224904;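 active = -10% or lower and over 25 points stronger than a control reporter; inconclusive = -10% or lower with a smaller gap; inactive = above -10%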;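 note: 0% = median of neutral control wells and -100% = median of positive control wells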
DUX4 txn inh difference: recorded beside DUX4 txn inh, whose call it bears; Gaussia minus Italica difference, %; measured here: selective DUX4 reporter inhibition;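 worked out from the two reporters; negative = selective loss of the DUX4 reporter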
DUX4 txn inh control: also measured in DUX4 txn inh; calls as there; activity change, negative = inhibition, %; measured here: Italica tet-on control reporter;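 0 = neutral control and -100 = positive control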
Active calls of the source: *; ? = inconclusive; . = not tested or not shown.

Results follow in this order: DUX4 txn inh difference, DUX4 txn inh, DUX4 txn inh control
> O=C(CC1CC1)N1[C@@H](CO)[C@@H]2c3ccccc3N(S(=O)(=O)c3ccccc3F)C[C@@H]21
→ 4.6, 0.6, -4.0
> C[C@H](CO)N1C[C@H](C)[C@@H](CN(C)C(=O)c2ccccn2)Oc2cc(C3=CCCC3)ccc2S1(=O)=O
→ 1.7, 3.1, 1.4
> O=C(c1ccc(F)cc1)N1CCCCN2[C@H](C1)[C@@H](c1ccc(-c3ccccc3)cc1)[C@@H]2CO
→ ., ?, .
> COc1ccc(NC(=O)Nc2ccc3c(c2)[C@H]2C[C@@H](CC(=O)N4CCc5ccccc5C4)O[C@@H](CO)[C@H]2O3)cc1
→ -2.4, 1.9, 4.3
> COc1cccc(-c2ccc([C@@H]3[C@H](CO)N4C(=O)CN(C(=O)CN5CCOCC5)C[C@@H]34)cc2)c1
→ -0.2, 4.0, 4.3
> CCC(=O)N1CC2(C1)[C@@H](c1ccc(-c3ccc(F)cc3)cc1)[C@H](CO)N2C(=O)CC
→ 1.5, 1.1, -0.4
> CCCNC(=O)N1C[C@H](O)COC[C@@H]2O[C@@H](CC(=O)N[C@H]3CCN(Cc4ccccc4)C3)CC[C@H]21
→ 5.4, 8.7, 3.2
> O=C(c1cccc(F)c1)N1CC[C@@H]2[C@H]1c1cc(-c3ccccc3F)ccc1N[C@@H]2CO
→ -4.2, 1.1, 5.2
> C/C=C/c1cnc2c(c1)C(=O)N([C@H](C)CO)C[C@@H](C)[C@@H](CN(C)C(=O)Nc1c(C)noc1C)O2
→ -0.6, 0.8, 1.4
> CC(C)C#Cc1ccc([C@@H]2[C@H](C#N)N(C(=O)c3ccccn3)[C@H]2CO)cc1
→ -1.9, -0.8, 1.1
> O=C(C[C@@H]1CC[C@H](NC(=O)Nc2ccc(F)cc2)[C@H](CO)O1)NCCN1CCCC1
→ 1.5, 1.5, 0.0
> CCCNC(=O)[C@@H]1[C@@H](CO)[C@@H]2Cn3c(ccc(C4=CCCC4)c3=O)[C@@H]2N1C(=O)C1CC1
→ 4.7, 5.7, 0.9
> O=C(C[C@H]1CC[C@@H](NC(=O)c2ccc3c(c2)OCO3)[C@H](CO)O1)NCc1ccc(Oc2ccccc2)cc1
→ ., ?, .
> O=C(C[C@@H]1C[C@@H]2c3cc(NC(=O)CC4CC4)ccc3O[C@@H]2[C@@H](CO)O1)NCc1ccc(Cl)cc1
→ -13.7, 0.6, 14.2
> COc1ccc2c3c([nH]c2c1)[C@@H](CO)N(C(=O)Nc1ccc(F)cc1)CC31CCN(S(C)(=O)=O)CC1
→ 13.3, 10.8, -2.5
> O=C(C[C@@H]1C[C@@H]2c3cc(NC(=O)c4ccc5c(c4)OCO5)ccc3O[C@@H]2[C@@H](CO)O1)NCCc1ccccc1
→ 14.0, 9.1, -4.9
> COCC(=O)N(C)C[C@@H]1Oc2ncc(-c3ccc(F)cc3)cc2C(=O)N([C@H](C)CO)C[C@@H]1C
→ -1.1, -4.0, -2.9
> O=C(C[C@H]1C[C@@H]2c3cc(NC(=O)c4ccc5c(c4)OCO5)ccc3O[C@@H]2[C@@H](CO)O1)NCc1cccc(F)c1
→ ., ?, .
> C[C@H](CO)N1C[C@H](C)[C@@H](CN(C)Cc2cccc(O)c2)OCc2ccccc2-c2c(n(C)c3ccccc23)C1=O
→ ., ?, .
> C[C@H](CO)N1C[C@H](C)[C@H](CN(C)Cc2cncnc2)Oc2ncc(C#C[C@@H](C)O)cc2C1=O
→ 0.0, 4.5, 4.5
> CCCC#Cc1ccc([C@@H]2[C@H]3CN(C(=O)c4ccncc4)CC(=O)N3[C@H]2CO)cc1
→ 6.4, 5.8, -0.7
> CC(C)OC(=O)N(C)C[C@H]1OCc2ccccc2-c2c(n(C)c3ccccc23)C(=O)N([C@H](C)CO)C[C@@H]1C
→ -5.0, -0.2, 4.8
> COc1ccc(S(=O)(=O)N2C[C@H](O)COC[C@@H]3O[C@H](CC(=O)NCc4ccc(Cl)c(Cl)c4)CC[C@H]32)cc1
→ ., ?, .
> CC=Cc1ccc2n(c1=O)C[C@@H]1[C@@H](CO)[C@H](C(=O)NCCOC)[C@H]2N1Cc1ccccc1 (mixture of isomers)
→ 0.9, -0.6, -1.5
> COC(=O)[C@H]1[C@H](CO)[C@H]2Cn3c(ccc(-c4ccc(F)cc4)c3=O)[C@H]2N1C(=O)C1CCC1
→ -5.6, -4.5, 1.0
> COCC(=O)N1CC2(C1)CN(Cc1nccs1)[C@@H](CO)c1c2c2ccc(OC)cc2n1C
→ 15.4, 17.1, 1.7
> CC(=O)N1CC2(C1)[C@@H](c1ccc(-c3ccc(C#N)cc3)cc1)[C@H](CO)N2C(=O)C1CC1
→ 3.7, 1.6, -2.1
> CN1[C@@H]2c3ccc(C4=CCCC4)c(=O)n3C[C@H]1[C@H](CO)[C@H]2C(=O)NCc1cc(F)cc(F)c1
→ -3.4, 3.1, 6.5
> CO[C@@H](CN(C)C(=O)c1cnccn1)[C@H](C)CN([C@@H](C)CO)S(=O)(=O)c1ccc(Cl)cc1
→ -0.4, -0.1, 0.3
> COc1cccc(C(=O)Nc2ccc3c(c2)C(=O)N(C)[C@@H]2CC[C@H](CC(=O)N[C@H](C)c4ccccc4)O[C@H]2CO3)c1
→ -4.6, 1.6, 6.2
> O=C1CN(Cc2ccc(F)cc2)C[C@@H]2[C@@H](c3ccc(Br)cc3)[C@H](CO)N12
→ 2.8, 10.5, 7.7
> CC(C)CC#Cc1ccc([C@H]2[C@@H](CO)N3C(=O)CN(S(C)(=O)=O)C[C@H]23)cc1
→ -14.3, -4.7, 9.6
> CCS(=O)(=O)N1CCC2(CC1)CN(C(=O)c1ccc(F)cc1)[C@@H](CO)c1[nH]c3cc(OC)ccc3c12
→ -3.6, 5.4, 9.0
> O=C(C[C@@H]1CC[C@@H]2NC[C@@H](O)COC[C@H]2O1)N1CCc2ccccc2C1
→ 1.6, 7.6, 6.1
> COc1ccccc1NC(=O)N1[C@H](C#N)[C@H](c2ccccc2)[C@@H]1CO
→ -6.2, -1.1, 5.1
> CCC(=O)N1CC2(C1)[C@H](c1ccccc1)[C@H](CO)N2CC1CCOCC1
→ 5.5, 7.9, 2.3
> CO[C@@H]1CC[C@@H]2CCN(C)C(=O)[C@@H](C)N(C)C(=O)c3cccc(C#N)c3OC[C@@H]1O2
→ -3.6, -0.6, 3.0
> N#C[C@@H]1[C@@H](c2ccccc2-c2ccccc2F)[C@@H](CO)N1C(=O)C1CC1
→ 7.7, 12.4, 4.7
> N#C[C@@H]1N[C@@H](CO)[C@@H]1c1ccc(C#Cc2ccccc2F)cc1
→ 0.2, 0.8, 0.7
> O=C(C[C@@H]1C[C@@H]2c3cc(NC(=O)Cc4ccncc4)ccc3O[C@@H]2[C@@H](CO)O1)NCC1CC1
→ 6.4, 12.5, 6.1
> CCCNC(=O)N1CC2(C1)[C@@H](c1ccccc1)[C@@H](CO)N2C(=O)C1CCCCC1
→ -5.8, -3.9, 2.0
> O=C1CN(S(=O)(=O)c2ccccc2)C[C@@H]2[C@@H](c3ccc(C#CCc4ccccc4)cc3)[C@@H](CO)N12
→ ., ?, .
> Cc1ccccc1-c1ccc([C@H]2[C@H]3CN(S(C)(=O)=O)CCCCN3[C@H]2CO)cc1
→ -8.1, -6.5, 1.7
> O=C(CN1CCOCC1)NCC[C@H]1CC[C@H](NC(=O)Cc2ccccn2)[C@H](CO)O1
→ 15.0, 16.3, 1.3
> O=C(Cc1ccncc1)NCC[C@H]1CC[C@@H](NC(=O)Nc2cccc(F)c2)[C@@H](CO)O1
→ 7.0, -0.9, -7.9
> Cc1ccc(-c2ccc([C@@H]3[C@H](CO)N4CCCCN(S(=O)(=O)c5ccccc5C)C[C@@H]34)cc2)cc1
→ ., ?, .
> O=C(Cc1ccncc1)Nc1ccc2c(c1)[C@@H]1C[C@H](CC(=O)NC3CCCCC3)O[C@H](CO)[C@@H]1O2
→ -16.7, -8.1, 8.6
> O=C(C1CCC1)N1CC2(C1)[C@@H](c1ccccc1)[C@@H](CO)N2C(=O)c1cccnc1
→ 6.4, 9.8, 3.4
> C[C@@H]1CCCCO[C@@H](CN(C)C(=O)Nc2ccc3c(c2)OCO3)[C@@H](C)CN([C@H](C)CO)C(=O)c2cc(NC(=O)C3CCCCC3)ccc2O1
→ 0.7, -1.6, -2.3
> O=C(c1ccccc1F)N1C[C@@H]2[C@H](c3ccccc31)[C@@H](CO)N2C(=O)c1ccc(F)cc1
→ -2.8, -2.2, 0.6
> CCNC(=O)[C@@H]1[C@@H](CO)[C@@H]2Cn3c(ccc(/C=C/c4ccccc4)c3=O)[C@H]1N2C(=O)C1CCC1
→ 3.5, 1.0, -2.5
> COc1ccc(NC(=O)N(C)C[C@H]2OCc3cn(nn3)CCCC(=O)N([C@@H](C)CO)C[C@@H]2C)cc1
→ 3.2, 1.0, -2.2
> COc1ccc2c3c([nH]c2c1)[C@H](CO)N(C(=O)C1CCCCC1)CC31CCN(Cc2nccs2)CC1
→ 5.5, 6.8, 1.3
> CS(=O)(=O)Nc1ccc2c(c1)[C@H]1C[C@@H](CC(=O)NC3CCCC3)O[C@H](CO)[C@H]1O2
→ -6.1, 1.3, 7.4
> COCC#Cc1ccc([C@@H]2[C@H]3CN(C(=O)C4CCCCC4)CC(=O)N3[C@H]2CO)cc1
→ 4.3, 9.1, 4.8
> CCC(=O)N1C[C@@H](C)[C@H](OC)CN(C)C(=O)c2ccc(NC(=O)CC(F)(F)F)cc2OC[C@H]1C
→ 4.4, 6.7, 2.3
> COc1ccc2c3c([nH]c2c1)[C@H](CO)N(C(=O)Nc1c(C)noc1C)CC31CCN(CC2CCCCC2)CC1
→ 4.6, 10.9, 6.3
> CCNC(=O)C[C@H]1CC[C@@H]2[C@H](COC[C@H](O)CN2C(=O)Nc2c(C)noc2C)O1
→ 3.8, 17.0, 13.2
> O=C(Nc1cccc(F)c1)N1C[C@@H]2[C@H](c3ccccc31)[C@@H](CO)N2C(=O)C1CCOCC1
→ 0.3, 2.8, 2.5
> CO[C@H](CN(C)C(=O)c1cnccn1)[C@@H](C)CN([C@@H](C)CO)S(=O)(=O)c1ccc(C)cc1
→ -0.7, -0.4, 0.3

Continuation.
Results follow in this order: DUX4 txn inh difference, DUX4 txn inh, DUX4 txn inh control
> CCc1csc(N2[C@H](C#N)[C@@H](c3ccc(-c4ccc(F)cc4)cc3)[C@@H]2CO)n1
→ -1.6, -6.2, -4.6
> Cc1cccc(S(=O)(=O)N(C)C[C@H]2OCc3cn(nn3)CCCC(=O)N([C@H](C)CO)C[C@H]2C)c1
→ -1.0, -1.4, -0.4
> Cc1ccc(-c2ccc([C@@H]3[C@@H](CO)N4C(=O)CN(C(=O)c5cccnc5)C[C@H]34)cc2)cc1
→ 10.4, 11.0, 0.5
> O=S(=O)(c1cccs1)N1CCCCN2[C@@H](CO)[C@H](c3ccc(Br)cc3)[C@@H]2C1
→ -28.1*, -14.0*, 14.1*
> COc1ccccc1-c1cnc2c(c1)C(=O)N([C@@H](C)CO)C[C@H](C)[C@H](CN(C)Cc1cncnc1)O2
→ -12.2, -7.9, 4.2
> COCC(=O)N1C[C@H]2[C@@H](c3ccccc31)[C@@H](CO)N2C(=O)Nc1ccccc1F
→ -0.4, -2.3, -1.9
> Cc1cccc(-c2ccc([C@@H]3[C@@H](CO)N4C(=O)CN(S(=O)(=O)c5cccc(F)c5)C[C@H]34)cc2)c1
→ -12.9, -7.4, 5.5
> C/C=C/c1ccc2c(c1)[C@@H]1[C@@H](CCN1C(=O)Cc1ccncc1)[C@@H](CO)N2C
→ 25.5, 30.1, 4.6
> COc1ccc2c3c([nH]c2c1)[C@@H](CO)N(CC1CCCC1)CC31CN(C)C1
→ -3.0, 6.8, 9.8
> CCC(=O)N1[C@H](CO)[C@H](c2ccc(C3=CCCC3)cc2)[C@@H]1CNC1CCCCC1
→ 0.4, 1.3, 0.9
> CN1C(=O)c2cc(NC(=O)c3cnccn3)ccc2OC[C@H]2O[C@@H](CC(=O)NCC3CCCCC3)CC[C@H]21
→ -1.5, 0.5, 1.9
> C[C@H](CO)N1C[C@H](C)[C@H](CN(C)C(=O)Nc2ccc3c(c2)OCO3)Oc2c(NC(=O)c3cnccn3)cccc2C1=O
→ -2.8, 0.6, 3.3
> COc1ccc([C@H]2CC=CC[C@@H](C)Oc3ccccc3C(=O)N(C)[C@H](C)C(=O)N2)c(OC)c1 (mixture of isomers)
→ 5.2, 1.0, -4.2
> C[C@H](CO)N1C[C@H](C)[C@@H](CN(C)C(=O)N[C@H](C)c2ccccc2)OCc2ccccc2-c2ccccc2C1=O
→ 18.8, 19.7, 1.0
> C[C@@H]1CN([C@H](C)CO)C(=O)c2ccccc2-c2ccccc2CO[C@@H]1CN(C)Cc1ccc(C(F)(F)F)cc1
→ -30.4*, -24.7*, 5.7*

3 entries out of the list above, ordered by their value in DUX4 txn inh difference, largest number first.
smiles | DUX4 txn inh difference | DUX4 txn inh | DUX4 txn inh control
COCC(=O)N1CC2(C1)CN(Cc1nccs1)[C@@H](CO)c1c2c2ccc(OC)cc2n1C | 15.4 | 17.1 | 1.7
CC=Cc1ccc2n(c1=O)C[C@@H]1[C@@H](CO)[C@H](C(=O)NCCOC)[C@H]2N1Cc1ccccc1 (mixture of isomers) | 0.9 | -0.6 | -1.5
Cc1cccc(S(=O)(=O)N(C)C[C@H]2OCc3cn(nn3)CCCC(=O)N([C@H](C)CO)C[C@H]2C)c1 | -1.0 | -1.4 | -0.4

(further entries)
Results follow in this order: DUX4 txn inh difference, DUX4 txn inh, DUX4 txn inh control
> O=C(NCC1CC1)[C@H]1[C@H](CO)[C@H]2Cn3c(cccc3=O)[C@@H]1N2C(=O)c1ccccc1
→ -1.4, 3.6, 5.0
> COCC(=O)Nc1ccc2c(c1)C(=O)N(C)[C@@H]1CC[C@@H](CC(=O)NCC(F)(F)F)O[C@H]1CO2
→ 4.6, 1.9, -2.7
> C[C@@H]1CN([C@@H](C)CO)C(=O)c2c(c3ccccc3n2C)-c2ccccc2CO[C@H]1CN(C)Cc1cccc2c1OCCCO2
→ -31.7*, -30.7*, 1.0*
> C[C@H](NC(=O)C[C@@H]1C=C[C@H](NS(=O)(=O)c2cccc(F)c2)[C@H](CO)O1)c1ccccc1
→ -1.8, -2.8, -0.9

These rows are one share of the data, so the mix of outcomes need not match the whole.
